Screening results deposited in PubChem by National Center for Advancing Translational Sciences (NCATS).
hNpr1 antagonist: Natriuretic polypeptide receptor (hNpr1) antagonism - Primary qHTS; HEK293 hNpr1 GloSensor cGMP, ANP-stimulated luminescence; AID 1347048, 2019; 76,000 compounds, 1.6% hits; Potency, µM (doses to about 46.3 µM), without a hit: at the top dose activity change, negative = inhibition, usual class: inhibitors; active = well fitted inhibition curve with a large enough effect; inconclusive = small, poorly fitted or top-dose-only effect; inactive = no such curve, though single readings can be large or run the other way;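 also: nearly all actives have a fitted effect of over 60% in size; nearly all hits also lower the signal before the agonist is added; a reference antagonist and vehicle were the controls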
Target sequence (P16066 whole entry, looked up): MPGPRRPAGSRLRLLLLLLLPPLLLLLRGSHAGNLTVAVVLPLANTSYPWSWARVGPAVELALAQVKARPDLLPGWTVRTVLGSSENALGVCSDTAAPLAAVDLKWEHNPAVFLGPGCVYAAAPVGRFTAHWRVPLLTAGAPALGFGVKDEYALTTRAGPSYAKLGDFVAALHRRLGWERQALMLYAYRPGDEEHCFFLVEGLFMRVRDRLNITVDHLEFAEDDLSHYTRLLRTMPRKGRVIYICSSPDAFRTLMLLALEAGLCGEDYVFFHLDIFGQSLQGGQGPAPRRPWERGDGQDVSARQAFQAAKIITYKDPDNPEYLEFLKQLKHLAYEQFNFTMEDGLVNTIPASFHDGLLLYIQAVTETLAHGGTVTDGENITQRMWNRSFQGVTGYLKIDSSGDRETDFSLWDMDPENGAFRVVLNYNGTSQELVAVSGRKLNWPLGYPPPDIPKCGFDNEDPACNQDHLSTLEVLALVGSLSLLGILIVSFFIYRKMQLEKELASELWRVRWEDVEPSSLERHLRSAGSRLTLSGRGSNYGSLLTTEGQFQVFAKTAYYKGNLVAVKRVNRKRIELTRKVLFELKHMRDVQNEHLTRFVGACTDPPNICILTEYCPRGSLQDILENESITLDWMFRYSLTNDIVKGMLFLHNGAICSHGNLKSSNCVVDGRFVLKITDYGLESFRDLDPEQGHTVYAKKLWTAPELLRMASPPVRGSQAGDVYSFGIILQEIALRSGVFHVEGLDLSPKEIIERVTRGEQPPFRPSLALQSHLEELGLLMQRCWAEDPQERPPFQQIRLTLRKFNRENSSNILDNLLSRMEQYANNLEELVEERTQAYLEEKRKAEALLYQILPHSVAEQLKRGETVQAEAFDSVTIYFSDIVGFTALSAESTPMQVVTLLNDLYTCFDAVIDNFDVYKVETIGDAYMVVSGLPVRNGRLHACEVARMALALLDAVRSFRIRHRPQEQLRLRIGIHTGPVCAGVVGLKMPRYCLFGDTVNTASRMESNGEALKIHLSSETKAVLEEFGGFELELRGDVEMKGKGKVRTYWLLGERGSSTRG
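Compound pre-incubated 30 min at room temperature on GloSensor-loaded HEK293 cells stably carrying hNpr1 and the pGS-40F cGMP biosensor. Stimulation uses hNppA at 0.1 nM final; luminescence is taken at baseline and 20 min post-agonist.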
* hit, by the source's call; ? = inconclusive; [ ] = remark or other dose. % is scaled to controls: 0 for no effect and ±100 for the full control effect; potency is read from the fitted curve at half-maximal effect. The list is partial; rates above refer to the full screens.

structure	hNpr1 antagonist
COc1ccc(C(=O)N[C@@H]2CCC[C@@H]2C(=O)N2CCN(C(=O)c3ccco3)CC2)cn1	-0.7%
O=C(c1ccccn1)N1CC(F)(F)C[C@H]1c1nc(-c2ncccn2)no1	3.5%
CNC(=O)c1noc([C@@H]2CC(F)(F)CN2Cc2cccn2C)n1	1.9%
CC(=O)Nc1cccc(-c2cc(C(=O)NCc3c(C)cc(C)[nH]c3=O)c3c(c2)N(C(C)C)CCO3)c1	1.0%
Cn1ccc(Nc2ccc3nnc(-c4ccccn4)n3n2)n1	8.0%[70.6 µM]
CCOC(=O)C1(Cc2ccc(F)cc2F)CCCN(C(=O)Nc2ccc3c(c2)OCO3)C1 (configuration not stated)	-1.2%
c1cncc(CN2CCC(OC3CCN(Cc4ccncc4)CC3)CC2)c1	2.1%
Cc1ccc(C(=O)N2CCN(C(=O)c3nnn4c3COC(c3ccccc3)C4)CC2)cc1C (configuration not stated)	-13.0%
COc1ccccc1CN1C[C@@H](CO)[C@H](c2ccccn2)C1	-1.9%
Cn1cncc1CN1CCC2(CCN(C3CCOCC3)CC2)C(CO)C1 (configuration not stated)	0.2%
CCn1ccnc1CN1CCCC(CO)(Cc2cccc(Cl)c2)C1 (configuration not stated)	-16.4%
CC(C)(C)c1ccc(-c2cc(C[C@H]3CNCC[C@H]3CC(=O)NCc3cccnc3)no2)cc1	7.0%
COc1ccc(CN2C=C(C(=O)OCc3nc(-c4cccc(OC)c4)no3)C(C)=NS2(=O)=O)cc1	?
COCc1nc(C2CCCN(C(=O)c3cccc(C)c3)C2)no1 (configuration not stated)	2.6%
COc1ccc(C(=O)N2CCN(c3cc(C(F)(F)F)ncn3)CC2)cc1OC	0.0%
O=C1CCN(C(=O)CCc2c[nH]c3ccccc23)CCCCCCN1	-7.6%
Cc1ccc(-c2ccc3nnc(CNC(=O)c4cc(C)ccc4C)n3n2)cc1	-10.9%
CCOC(=O)CCNC(=O)N1C[C@@H](Oc2cccnc2)C[C@H]1C(=O)N1CCOCC1	-12.8%
CN(C)C[C@@H]1CN(Cc2cccnc2)C[C@H]1NC(=O)c1ccc2c(c1)OCO2	0.5%
Cc1cnc(C(=O)N2CCc3nnc([C@@H]4C[C@@H](O)CN4C)n3CC2)cn1	-2.7%
Cc1cccc(-c2ocnc2C(=O)N2CC[C@H](CO)[C@H](NC(=O)C3CC3)C2)c1	2.8%
O=C(Cc1ccccn1)NC1CCN(c2nc3ncccc3o2)CC1	3.8%
COc1ccccc1Nc1ncncc1-c1nc(-c2ccccc2)no1	-11.5%
CCOc1cc(=O)n2c(c1C(=O)NCCOC)CCCCC2	-0.8%
COc1ccc(-c2nc(-c3nnn4c3COC(c3ccccc3Cl)C4)no2)cc1 (configuration not stated)	15.1%
O=C(CCCc1ccccc1)Nc1ccnn1C1CCN(C(=O)CCc2cnccn2)CC1	-1.9%
OC1CN(Cc2ccc(-c3cnc4c(OCc5ccccc5)nccn34)cc2)C1	-27.4%[70.6 µM]
Cc1ncc(C(=O)N2CCCC(c3cc(N4CCOCC4)nc(C)n3)C2)cn1 (configuration not stated)	2.1%
CCN1c2cc(C(=O)Nc3cc(F)cc(F)c3)ccc2C(=O)N2CCCCC21 (configuration not stated)	-11.6%
Cc1ccc(C(=O)N2CCN(c3nnc4ccccn34)CC2)cc1C	-2.0%
Fc1ccc(C2Cn3nnc(-c4nc(-c5ccc(Br)cc5)no4)c3CO2)cc1 (configuration not stated)	4.8%
CC1=C(C(=O)NC(C)(C)C)C(c2ccc(Cl)cc2)N2C(CC(=O)N3CCCC3)=CSC2=N1 (configuration not stated)	-17.1%
Cc1ccccc1-c1noc(-c2nc(-c3ccncc3)no2)n1	-0.9%
Cn1cc(CN2Cc3c(cc(N4CCOCC4)nc3-c3cccnc3)C2=O)cn1	6.2%[70.6 µM]
COCCN1C[C@]23C=C[C@H](O2)C(C(=O)N(C)Cc2cnccn2)C3C1=O (some centres not stated)	3.0%
CC(C)(O)C#Cc1ccc(C(=O)N2CC(=O)N(C3CCCCC3)CC(OCc3cccnc3)C2)o1 (configuration not stated)	0.3%
CCNC(=O)c1cccnc1OC1CCN(C(=O)Cc2ccccc2)C1 (configuration not stated)	-2.1%
Cc1[nH]nc2c1C(c1cccc(Cl)c1)C(C#N)=C(N)O2 (configuration not stated)	-3.5%
CCNC(=O)c1cccnc1OC1CCN(C(=O)c2ccccc2)C1 (configuration not stated)	6.1%
COc1ccc(Nc2ncncc2-c2nc(-c3ccccc3)no2)cc1F	-19.0%
O[C@@H]1CCN(Cc2nc(C3(O)CCN(Cc4ccccc4C(F)(F)F)CC3)cs2)C1	2.3%
O=C(C1CCOCC1)N1CCOC[C@H](Oc2ccccc2)C1	6.7%[70.6 µM]
CNC(=O)[C@@H]1CN(S(=O)(=O)c2ccccc2F)C[C@H]1COC	-0.5%
CN1c2cc(C(=O)Nc3ccc(Oc4ccccc4)cc3)ccc2C(=O)N2CCCCC21 (configuration not stated)	?
O=C(CCC[C@@H]1[C@H]2CCCN3CCC[C@@H](CN1C(=O)c1ccccc1)[C@@H]23)N1CCCCC1	0.0%
COc1ccc(N2CCN(C(=O)c3cc(NC(C)=O)cc4nc(C)ccc34)CC2)cc1	2.9%
O=C1NCCCc2[nH]c(-c3cnn(-c4cccc(F)c4)c3)nc21	-20.7%
O=C(Nc1ccc2c(c1)OCCO2)N1CCC(Cc2noc(C3CCOCC3)n2)C1 (configuration not stated)	-12.7%
COCc1noc([C@@H]2CN(Cc3ccoc3)C[C@H]2COC)n1	1.1%
COc1ccc(S(=O)(=O)N2C[C@@H](F)C[C@H]2C(=O)N2CCOCC2)cc1OC	-1.8%
CC(=O)NCCC1CCN(C(=O)Nc2ccc(C)c(F)c2)CC1	-27.9%
Cc1oc2c(c1C(=O)NCc1ccncc1)CN(Cc1cccc(F)c1)CC2	-11.7%
CC(C)CC(=O)NC1CCN(c2ccccc2)C1=O (configuration not stated)	1.2%
Cc1nc(N)nc(C)c1CC(=O)N1CCC2(CC1)OCCCC2O (configuration not stated)	8.8%
COc1ccc(CC(=O)N2CC[C@@H](CC(=O)O)[C@@H](CCN3CCNCC3)C2)cc1	5.3%[70.6 µM]
Cc1ccsc1C(=O)N1CCCN(c2cc(-c3ccc(Cl)cc3)[nH]n2)CC1	?
Cn1c(=O)cc(C(=O)NC2CCCc3c2[nH]c2ccccc32)c2ccccc21 (configuration not stated)	-3.4%
CC(C)c1ccc(CC(=O)N2CCCc3ncc(C(=O)NCCc4cnc[nH]4)cc32)cc1	-7.2%[70.6 µM]
S=C(Nc1ccccc1)N[C@H]1CO[C@H]2[C@@H]1OC[C@@H]2Nc1nccc(-c2ccco2)n1	-22.0%[70.6 µM]
COCCn1cc(CN2CCN(c3ccccn3)CC2)ccc1=O	3.7%

In the list so far, five have a Cl atom:
structure	hNpr1 antagonist
CCn1ccnc1CN1CCCC(CO)(Cc2cccc(Cl)c2)C1 (configuration not stated)	-16.4%
COc1ccc(-c2nc(-c3nnn4c3COC(c3ccccc3Cl)C4)no2)cc1 (configuration not stated)	15.1%
CC1=C(C(=O)NC(C)(C)C)C(c2ccc(Cl)cc2)N2C(CC(=O)N3CCCC3)=CSC2=N1 (configuration not stated)	-17.1%
Cc1[nH]nc2c1C(c1cccc(Cl)c1)C(C#N)=C(N)O2 (configuration not stated)	-3.5%
Cc1ccsc1C(=O)N1CCCN(c2cc(-c3ccc(Cl)cc3)[nH]n2)CC1	?

Next part
structure	hNpr1 antagonist
COc1ccc(C(=O)N2CCC([C@@H]3CNC[C@H]3CO)CC2)cc1OC	7.6%
Fc1cccc(Nc2ncc(-c3cccnc3)c3c2OCC3)c1	-10.4%[70.6 µM]
O=C(Cc1ccccc1)NCc1ccnc2[nH]ccc12	-14.9%[70.6 µM]
CCNc1nccc(N2CCC(CC(=O)NCc3ccccc3F)CC2)n1	-7.8%
CNC(=O)[C@@H]1CN(C(=O)c2ccc(F)cc2F)C[C@H]1COC	1.1%
Cc1ccsc1C(=O)N1CCc2n[nH]c(=O)n2CC1	1.5%
COC[C@@H]1CN(C(=O)c2ccn[nH]2)C[C@H]1c1ccncc1	-1.0%
CC(=O)N1CCC(NC[C@H]2O[C@@H]3C[C@@H](CC(=O)N4CCOCC4)O[C@@H]3[C@@H]2O)CC1	2.4%[70.6 µM]
Cc1nc2ncccn2c1C(=O)N1CCn2nc(CO)cc2C1	-1.0%
CC(=O)c1cccc(N2C(=O)[C@@H]3C[C@@H](NC(=O)c4ccncc4)CCN3C2=O)c1	0.7%[70.6 µM]
Cc1cc(C(=O)N2C[C@@H](COc3ccccc3)[C@H](C(N)=O)C2)nn1C	-9.4%
Cc1ccc(CN2CCC3(C2)NC(=O)c2ccccc2O3)cc1 (configuration not stated)	0.0%[70.6 µM]
CCOC(=O)C1=C(C)N=C2SC=C(CC(=O)N3CCOCC3)N2C1c1cccc(OC)c1OC (configuration not stated)	-25.7%
CCC(=O)N1CCCC(c2nc(-c3ccccc3)no2)CCNC(=O)CC1 (configuration not stated)	-1.1%
Cc1ncoc1C(=O)N1CCCC(CCc2ccc(F)c(F)c2)C1 (configuration not stated)	-0.1%

The results go on.
molecule	hNpr1 antagonist
COc1ccccc1CC(=O)N1CCc2nn(C)c(=O)n2CC1	3.5%
CN1C(=O)c2cccn2CC1C(=O)NC1CCN(Cc2ccccc2)CC1 (configuration not stated)	-9.0%
COc1ccccc1N1CCN(C(=O)CCc2conc2-c2cccc(F)c2)CC1	-13.7%
CCN(CCNc1ncncn1)c1cccc(C)c1	6.3%
Cc1c(Cl)cccc1NC(=O)CN1C(=O)NC(c2ccc(Cl)cc2)C2=C1COC2=O (configuration not stated)	-20.5%
O=C(O)c1cnc(-c2ccccc2)nc1-c1ccncc1	2.5%
N#Cc1ccc(C(=O)N[C@H]2[C@H](O)[C@H](O)C[C@@H]2c2ccc(C(F)(F)F)nc2)cc1	6.8%[70.6 µM]
COc1ccc(S(=O)(=O)NCC2CCCN(Cc3ccc(-c4ccco4)cc3)C2)cc1 (configuration not stated)	-2.3%
Cc1ccc(CNC(=O)N2CCCCCCNC(=O)CC2)cc1	11.7%
CN(C)Cc1cn2c(=O)n(C)cc(-c3cccc(OC(F)(F)F)c3)c2n1	5.5%[70.6 µM]
O=C(c1ccn[nH]1)N1CCC(c2nc(CCOc3ccc(F)cc3)no2)C1 (configuration not stated)	0.4%
CC(=O)NCCNC(=O)[C@@H]1Cc2cn(Cc3cc(C)on3)c3cccc(c23)[C@H](CC(C)C)N1	3.9%
CS(=O)(=O)N1C[C@@H](Oc2ccccc2)C[C@H]1C(=O)N1CCOCC1	4.5%
CCOc1ccc2c(n1)CCN(C(=O)Nc1ccccc1OCC)C2	0.0%
CNC(=O)Nc1ccc(C)n(CC(=O)N2CCN(c3ccccc3F)CC2)c1=O	2.2%
O=C(Cn1ccn2nc(-c3ccccc3)c(CO)c2c1=O)NCCCc1ccccc1	-6.1%
COc1ccc(CNC(=O)CC[C@H]2CNC(=O)[C@@H]3[C@@H](CCN3Cc3ccc(OC)cc3)N2C)cc1	5.7%
Cc1ccccc1CNC[C@H]1Cn2c(-c3ccccc3)cnc2CO1	-4.9%[70.6 µM]
COc1cccc(-c2cc(C(=O)O)cc(S(=O)(=O)NC(C)C)c2)c1	8.1%
COc1cccc(NC(=O)Cn2c(N(C)Cc3ccccc3)nc(C)cc2=O)c1	10µM*
CN1CCN(C(=O)C2CCCN(C3CCN(c4cc(C#N)ccn4)CC3)C2)CC1 (configuration not stated)	4.4%
Cn1ncc(N2CCC(NC(=O)CC3CCCCC3)CC2)cc1=O	0.9%
O=C(O)c1ccc(CN2CCC[C@H]2c2nc(-c3ccc(-n4ccnc4)nc3)no2)cc1	-2.7%[70.6 µM]
Cc1cc(CN2CCC(n3cc[nH]c3=O)CC2)no1	-3.5%[70.6 µM]
O=C1COCC2(CN1Cc1cccc(OC(F)(F)F)c1)CN(c1ccccn1)C2	-1.8%[70.6 µM]
Clc1ccccc1Cc1nc(-c2ccc(OC3CCNC3)cc2)no1 (configuration not stated)	8.0%
CC(C)Cc1nc2nccc(-c3ccco3)n2n1	1.6%
O=C(CC1CCN(C(=O)Nc2c(F)cccc2F)C1)NCc1ccccc1 (configuration not stated)	0.0%
OC[C@H]1CCN(Cc2ccc(-c3cccc(Cl)c3Cl)o2)C[C@@H]1O	10µM*
O=C(c1cc(F)ccc1Cl)N1CCN(c2cc(-c3ccc(F)cc3)[nH]n2)CC1	17.8µM*
COCC(=O)N(C1CCOCC1)C1CCN(C(=O)Cc2ccsc2)CC1	4.5%
CC(C)(O)CCc1ccc(CN2CCN([C@H]3CCCC[C@@H]3O)CC2)cc1	0.8%
COc1ccc(-c2nnc3n2CCN(C(=O)NC2CCCC2)C3)cc1	-1.7%[70.6 µM]
N#Cc1ccc(O[C@@H]2CCOC[C@H]2NC(=O)CCN2CCCC2=O)cc1	-1.6%
Cc1ccsc1CN1CCOc2cc([S+](=O)([O-])Nc3ccccc3)ccc2C1	?
COc1ccccc1CCC(=O)NC1CCCN(c2cc(-c3ccc(F)cc3)[nH]n2)C1 (configuration not stated)	-10.4%
Cn1cccc1CN1CCC2(COc3ccccc3C(=O)N2)C1 (configuration not stated)	-1.8%[70.6 µM]
COc1ccc(NC(=O)c2cc3n(n2)CC(c2ccc4c(c2)OCO4)OC3)cc1OC (configuration not stated)	-16.7%
O[C@@H]1CC(CNCC2CCCC2)(COc2ccc(C(F)(F)F)cn2)C[C@@H]1O (some centres not stated)	?
Cn1ccnc1-c1nc2cc(S(=O)(=O)N3CCCC3)ccc2n1C	-1.2%
